# MLL AF4-AF9 inh = inhibitors of human MLL-AF4/AF9 interaction; AlphaScreen, biotin-AF4 peptide binding to FLAG-AF9; inhibition, % at 10 µM; 350,000 compounds, 0.47% hits; AID 651704;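 active = every replicate reaching a set inhibition limit, whatever the replicate mean, cut at about 25% in these data; inconclusive = mean inhibition reaches that limit but some replicates miss it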;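 note: 0% = plate neutral control median and 100% = total signal loss; the record names both 10 and 1 µM as test concentration; the first replicate is given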
# Target sequence (P42568 whole entry, looked up): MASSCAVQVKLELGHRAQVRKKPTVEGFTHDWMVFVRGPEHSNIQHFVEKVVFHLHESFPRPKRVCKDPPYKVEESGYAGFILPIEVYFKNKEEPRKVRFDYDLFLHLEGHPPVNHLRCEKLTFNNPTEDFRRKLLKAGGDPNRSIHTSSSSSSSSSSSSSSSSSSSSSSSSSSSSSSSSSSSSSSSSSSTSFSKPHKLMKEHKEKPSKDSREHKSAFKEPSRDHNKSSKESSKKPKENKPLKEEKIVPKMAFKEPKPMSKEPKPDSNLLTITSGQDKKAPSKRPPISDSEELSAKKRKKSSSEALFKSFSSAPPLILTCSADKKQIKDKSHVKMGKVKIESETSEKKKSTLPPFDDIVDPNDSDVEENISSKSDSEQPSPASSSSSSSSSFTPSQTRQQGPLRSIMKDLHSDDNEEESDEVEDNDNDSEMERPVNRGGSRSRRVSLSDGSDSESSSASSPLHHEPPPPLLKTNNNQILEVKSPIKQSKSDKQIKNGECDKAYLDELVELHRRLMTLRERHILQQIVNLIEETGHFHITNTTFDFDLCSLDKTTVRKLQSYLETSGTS
# RanGTP-Imp inh = disruptors of Ran-importin-beta complex formation – biochemical, FRET, CFP-Ran, YFP-importin-beta, homogeneous, primary screen; inhibition, % (no concentration beside the values); 300,000 compounds, 1.1% hits; cell-free CFP-Ran/YFP-importin-beta FRET ratio;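 active = most replicates above 15%; inconclusive = exactly half above 15%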;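 note: 0% = DMSO wells and 100% = Ran loaded with GDP instead of GTP; wells of about 40 µL received 100 nL stock; the first replicate is given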
# Ecoli growth = E. coli growth inhibition; 330,000 compounds, 0.21% hits; OD600 absorbance (no concentration beside the values); Escherichia coli growth, OD600, 23 h; active compounds read low; AID 1053175;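 active = OD600 absorbance below the run mean of sample wells minus 3.6 SD, in any replicate, cut at about 0.56 in these data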;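 note: stock transfer was 300 nL into about 60 µL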
# UCH37 DUB inh = human UCH37 deubiquitinating enzyme inhibition; Q9Y5K5; purified proteasome/UCH37, Ub-AMC cleavage fluorescence; inhibition, % (no concentration beside the values); 330,000 compounds, 0.33% hits;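 active = mean of two replicates above 20%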;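 note: 0% = compound-free wells with enzyme and 100% = wells lacking proteasome; stock transfer was 100 nL into about 20 µL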
# Target sequence (Q9Y5K5 whole entry, looked up): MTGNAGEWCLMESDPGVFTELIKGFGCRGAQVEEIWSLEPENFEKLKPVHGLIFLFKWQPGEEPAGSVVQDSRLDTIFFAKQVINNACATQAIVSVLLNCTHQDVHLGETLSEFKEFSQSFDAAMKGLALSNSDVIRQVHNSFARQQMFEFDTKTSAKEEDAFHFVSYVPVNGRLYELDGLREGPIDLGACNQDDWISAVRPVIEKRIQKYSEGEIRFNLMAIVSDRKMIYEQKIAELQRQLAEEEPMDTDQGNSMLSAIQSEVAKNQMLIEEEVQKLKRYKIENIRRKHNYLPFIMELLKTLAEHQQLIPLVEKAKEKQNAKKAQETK
#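 Assay system: Proteasome-bound UCH37. Buffer or medium: pH 7.4 Tris-HCl (50 mM) with ovalbumin, ATP-MgCl2, DTT. Incubation: 30 min preincubation with enzyme, 25 min cleavage at room temperature. Measured by: fluorescence, ex 355 nm, em 460 nm. Read-out basis: percent inhibition. Control set: wells without proteasome as full block, compound-free enzyme plus substrate as uninhibited.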
# HNF4A DNA FP = change in binding of human HNF4 alpha to DNA; P41235; HNF4a-FITC DNA binding, fluorescence polarization, 1 h; activity change, % at 10 µM; 360,000 compounds, 0.3% hits; in the data active = activity change above about 30%, passing the limit was not always enough;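 note: controls were the assay level and a saturating level of protein; the project sought stronger binding though the title names inhibitors; some compounds called inactive have numbers as strong as hits; positive values seem to mean higher polarization but the record does not say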
# FGF22 binding = FGF22 (human) thermal shift binding | 340,000 compounds, 1.5% hits | recombinant FGF22 thermal shift, SYPRO orange fluorescence; percent of sucrose octasulfate shift, DMSO zero | calls only at 9.99 µM | AID 651658 | Q9HCT0;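 active = melting point raised past a set limit in the mean and every replicate; inconclusive = no clear call; three in four hits are not shown here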
# Target sequence (Q9HCT0 whole entry, looked up): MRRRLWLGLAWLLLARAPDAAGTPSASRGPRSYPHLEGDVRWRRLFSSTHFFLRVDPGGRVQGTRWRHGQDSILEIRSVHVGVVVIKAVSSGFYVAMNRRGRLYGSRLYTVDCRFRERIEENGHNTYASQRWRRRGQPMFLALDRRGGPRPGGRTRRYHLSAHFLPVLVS
# Vif A3G = HIV-1 Vif–A3G interaction blockers – biochemical, TR-FRET, GST-Vif 1-94, biotin-A3G peptide, dose response retest, primary screen (AID 1117319). TR-FRET GST-Vif / biotin-A3G peptide binding; higher % means a stronger effect; test concentration not given here; strong numbers were not always called active. inhibition, %; hits with a dose series show IC50 in µM. 260,000 compounds, 0.57% hits;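 active = above the screen mean plus three standard deviations and confirmed in dose response; inconclusive = results disagree or hit not tested in dose response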;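 note: Vif residues 1-94 fused to GST binding biotinylated APOBEC3G peptide 110-148; 0% = full assay without inhibitor and 100% = GST in place of GST-Vif; retest series ran down from 100 µM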
# The depositor's hits bear a star; i = inactive; u = inconclusive; x = no result given; & = joins results of further samples.
SMILES,MLL AF4-AF9 inh,RanGTP-Imp inh,Ecoli growth,UCH37 DUB inh,HNF4A DNA FP,FGF22 binding,Vif A3G
N#Cc1cc(-c2ccccc2)oc1NC(=O)c1ccccc1,x,3.0,0.77,6.2,5.8,x,u
c1cc(-c2noc(CC3CCCCC3)n2)ccn1,x,-0.2,0.69,3.8,-0.1,x,-4%
Cc1ccc(S(=O)(=O)Nc2cc(C(F)(F)F)ccc2N2CCOCC2)cc1C,0.8,3.5,0.75,2.0,-1.1,i,-1%
CCOC(CNC(=O)c1cc(C)nn1-c1ccccc1)OCC,x,-0.5,0.72,0.9,-2.6,x,14%
COC(=O)Cn1cnc2c(cnn2-c2ccc(OC)cc2)c1=O,-3.0,5.2,0.71,-1.1,-0.4,i,-3%
COc1ccc(C(=O)c2ccccc2C(=O)c2ccccc2)cc1,-1.1,x,x,x,-2.4,i,-15%
CC(=O)Nc1nc(C)c(Oc2cccc(C(F)(F)F)c2)c(=O)[nH]1,-3.4,-1.8,0.69,0.0,0.5,i,8%
CN(C)C(=O)c1cc(Cl)ccc1Sc1cc(Cl)ccc1Cl,x,1.3,0.67,1.0,2.4,x,72%
COc1cc(/C=N/NC(=O)c2sc(N)c(C#N)c2C)cc(Br)c1O,x,1.3,x,x,3.5,x,1%
COc1ccc(/C=N/NC(=O)c2nn(C)cc2Br)cc1CSCc1ccco1,0.5,-1.2,x,x,-0.8,i,8%
CCCCCOC(=O)Cc1c(O)c2ccccc2[nH]c1=O,x,-0.1,0.67,0.0,0.4,x,3%
COc1ccccc1CNc1nc2cc(-c3sccc3C)sc2c(=O)n1C,2.1,x,x,x,-2.9,i,x
CCC(=O)N1CCc2cc(S(=O)(=O)CCC(=O)NC(C)CC)ccc21 (stereo not given),-1.7,-3.6,0.68,-1.6,-1.1,i,-3%
COc1ccc(OC)c(NC(=O)COC(=O)Cn2nnc(-c3ccccc3)n2)c1,6.7,x,0.7,2.4,0.5,i,x
CCOC(=O)c1c(NC(=O)C2CCCO2)sc(C(=O)OC(C)(C)C)c1C (stereo not given),x,0.9,0.76,-3.7,-2.5,x,-4%
O=C1CCC/C1=C\Nc1ccc(Cl)c([N+](=O)[O-])c1,x,3.8,0.65,16,-4.2,i,u
CCCn1c2ccccc2c2cnn(CC(=O)NCCCN3CCN(c4ccccc4)CC3)c(=O)c21,6.3,1.9,0.65,-7.7,-4.1,i,-5%
FC(F)(F)c1cc(-c2ccco2)nc(-n2nnc3ccccc32)n1,x,7.0,0.79,-207,-2.4,x,15%
O=C(Nc1ccncc1)c1cc(F)cc(F)c1,x,-1.3,0.66,0.7,0.2,x,4%
Cc1cc(Cl)ccc1NC(=S)NCc1cccs1,x,-2.9,0.69,-1.4,-6.2,x,2%
CCNc1nc(CSc2ccccc2)nc2sc(C)c(C)c12,x,2.5,x,1.2,-2.1,x,x
COc1ccc(NC(=O)CN(c2ccccc2C)S(C)(=O)=O)c(OC)c1,-1.3,-5.7,0.68,1.5,-0.2,i,x
O=C1CCCN1c1ccc(S(=O)(=O)N2CCN(c3ccccc3)CC2)cc1,-1.0,-4.0,0.68,3.9,-1.6,i,0%
CC1(O)N(Cc2ccccc2)C(=O)OC12CCCCC2 (stereo not given),-0.3,1.2,0.72,0.4,0.4,i,-2%
O=C(N[C@@H]1CC[C@H](CCn2cc(-c3ccccn3)nn2)O[C@@H]1CO)c1ccncc1,-0.7&-2.2,x,x,x,-1.8,i,x

# Next part; the last 4 above are carried over.
SMILES,MLL AF4-AF9 inh,RanGTP-Imp inh,Ecoli growth,UCH37 DUB inh,HNF4A DNA FP,FGF22 binding,Vif A3G
COc1ccc(NC(=O)CN(c2ccccc2C)S(C)(=O)=O)c(OC)c1,-1.3,-5.7,0.68,1.5,-0.2,i,x
O=C1CCCN1c1ccc(S(=O)(=O)N2CCN(c3ccccc3)CC2)cc1,-1.0,-4.0,0.68,3.9,-1.6,i,0%
CC1(O)N(Cc2ccccc2)C(=O)OC12CCCCC2 (stereo not given),-0.3,1.2,0.72,0.4,0.4,i,-2%
O=C(N[C@@H]1CC[C@H](CCn2cc(-c3ccccn3)nn2)O[C@@H]1CO)c1ccncc1,-0.7&-2.2,x,x,x,-1.8,i,x
COc1ccc(-c2noc(CCCC(=O)N3CCOCC3)n2)cc1,-0.9,2.4,0.73,-1.9,0.2,i,x
C[C@H]1CN=C(Nc2ccccc2)N1CCC1CCCCC1,4.3,0.0,x,5.2,3.8,i,x
C=C(C)Cn1c(NCCC)nc2c1c(=O)n(C)c(=O)n2C,-2.8,-1.6,0.71,4.7,-2.7,i,x
CC(=O)Oc1ccc(C(=O)[C@H]2[C@H]3C(=O)N(c4cccc5ccccc45)C(=O)[C@H]3[C@@H]3C=CC=NN32)cc1,x,2.0,0.65,4.5,14,x,8%
CCC(=O)Nc1c(-c2ccccc2)c(=O)c2ccccc2n1C,-1.6,2.2,0.68,1.1,1.1,i,x
CC(=O)C1[C@H](N(C)C)CC2C3CC=C4CC(O)CC[C@]4(C)C3CC[C@@]21C (stereo not given in full),-0.9,1.2,0.66,0.2,-1.6,i,3%
CCOc1ccccc1NC(=O)CN(c1ccc(C)cc1)S(=O)(=O)c1c(C)noc1C,x,x,0.7,3.8,1.8,x,1%
CCN(C(=O)CSc1nc(-c2cccs2)nc2ccccc12)C1CCS(=O)(=O)C1 (stereo not given),-0.9,x,0.67,-54,1.3,i,x
O=C(/C=C/c1ccccc1[N+](=O)[O-])OC1CCCCC1=O (stereo not given),-0.5,-3.0,0.64,6.5,4.7,i,x
O=C(CC1CCCC1)N1CCCC(Nc2ccc(F)cc2)C1 (stereo not given),1.4,1.1,0.72,-1.0,1.6,i,8%
Cc1ccc(Oc2c(CO)c(-c3ccccc3)nn2C)cc1,-1.7,3.5,0.61,2.0,0.8,i,-3%
CCN(C(=S)Nc1cccc(C)c1)c1ccccc1,x,-2.0,0.74,-1.9,-0.4,x,4%
CCCCN1C(=O)c2ccccc2C1C(=O)NC1CCCC1 (stereo not given),x,0.1,0.74,0.8,0.7,x,14%
Cc1ccc(N(CC(O)COCc2ccco2)S(=O)(=O)c2ccc(C)cc2)cc1 (stereo not given),x,-1.7,0.73,1.2,-4.6,x,24%
CCCCN1CC(COc2ccccc2)OC1=O (stereo not given),x,0.1,0.62,0.1,-1.7,x,-5%
Cc1nn(-c2ccccc2)c(C)c1/C=N/NC(=O)CSc1nnc(-c2ccccc2)n1-c1ccc(Cl)cc1,x,4.4,x,x,-1.0,x,2%
CCc1cc(C(=O)N2CCCC(C(=O)c3cccc(OC(C)C)c3)C2)n(C)n1 (stereo not given),-1.9,0.2,0.68,2.0,1.6,i,-3%
CC(=NNC(=O)c1ccc(NS(=O)(=O)c2cccs2)cc1)c1ccc(OCC(N)=O)cc1,0.3,x,0.66,5.8,-4.3,i,x
CC(=O)c1nn(-c2cccc(Br)c2)cc1C(=O)c1ccc(Cl)cc1,0.6,-5.5,x,x,0.2,i,-11%
O=C(Cn1nc(C(=O)O)c2ccccc2c1=O)Nc1cccc(S(=O)(=O)N2CCCCCC2)c1,-3.6,x,0.65,-1.4,-1.6,i,1%
N#Cc1ccccc1OCCN1C(=O)c2ccccc2C1=O,x,-5.9,0.79,3.0,2.9,x,10%
Cc1ccc(Cn2ncn3c(cc4ccccc43)c2=O)cc1,x,0.0,0.71,2.5,2.6,x,-2%
Cc1nc2c(-c3ccc(F)cc3)c(C)nn2c(C)c1CCC(=O)NCc1ccco1,-5.7,4.8,0.78,-13,2.2,i,0%
O=C(OCc1ccc(F)cc1)c1ccc2ccccc2n1,-1.1,1.3,0.68,0.4,0.9,i,3%
COc1ccc(C(=O)/C=C2/C(=O)Nc3ccccc32)c(OC)c1,1.2,-2.2,0.64,5.9,1.0,i,x

# The results go on:
SMILES,MLL AF4-AF9 inh,RanGTP-Imp inh,Ecoli growth,UCH37 DUB inh,HNF4A DNA FP,FGF22 binding,Vif A3G
COC(=O)C1(C(=O)OC)C[C@H](c2ccc(OC)cc2)N(Cc2ccccc2OC)[C@@H]1c1cccs1,-2.1&0.4,x,x,x,-2.9&-0.5,i,x
CCC1=NN(C(=O)C(=O)NCCc2ccccc2)C(O)(C(F)(F)F)C1 (stereo not given),x,1.0,0.67,1.1,-1.7,x,6%
O=C(Nc1ccccc1)c1ccccc1CC[N+](=O)[O-],x,25,0.78,0.8,1.4,x,16%
O=C(COC(=O)c1ccc2c(c1)OCCO2)Nc1cc(S(=O)(=O)N2CCOCC2)ccc1Cl,-1.2,0.6,0.67,2.1,6.7,i,-3%
Cc1ccc(-n2nnc(-c3cc4ccccc4n3C)n2)cc1,-0.6,-1.2,0.67,-4.3,4.8,i,x
CC1Cc2cc(S(=O)(=O)N3CCC(C(=O)N4CCN(c5ccccc5F)CC4)CC3)ccc2N1C(=O)C1CC1 (stereo not given),-2.0,-3.1,0.71,4.2,-0.6,i,x
COc1ccccc1C(=O)CSc1nnc(-c2ccco2)o1,-2.6,0.7,0.67,2.0,1.3,i,-10%
Cc1ccc(C(=O)Nc2c(N)nc(SCC(=O)Nc3cc(C)on3)[nH]c2=O)cc1,-0.3,x,0.73,-0.9,2.3,i,6%
COC(=O)CCNS(=O)(=O)c1ccc2nsnc2c1,x,x,0.72,0.9,-0.4,i,x
O=C(NNC(=O)c1ccc[nH]1)Nc1cc(Cl)cc(Cl)c1,-5.4,1.7,0.65,1.7,8.3,i,u
CC(=O)Nc1ccc(Nc2ccc3nonc3c2[N+](=O)[O-])cc1,-1.1,u,0.66,9.1,30,x,1%
COc1ccccc1NC(=O)c1nc(S(=O)(=O)Cc2ccccc2)ncc1Cl,1.5,0.7,x,x,-2.7,i,x
CCOC(=O)N1CCC2(CC1)C(C#N)=C(N)OC1=C2C(=O)CCC1,3.2,-2.2,0.69,-0.6,4.5,i,9%
COc1ccccc1NC(=S)NNC(=O)c1ccc(O)cc1,x,0.6,0.74,0.9,3.4,x,u
CCOc1ccc(CNC(=O)CCCC(=O)n2nc(C)c3ccccc32)cc1,-1.5,2.6,0.69,-0.6,0.4,i,x
CC1CC(C)CN(CC(O)COCc2ccccc2F)C1 (stereo not given),-1.4,1.3,0.68,2.1,3.5,i,0%
Cn1c2ccccc2c2c(C(=O)O)cn(C3CCCC3)c(=O)c21,-0.6,-1.4,0.76,-170,-3.1,i,82%
Cc1ccccc1-c1cc(C(=O)NCC2CC2)n(CC2CC(c3cccnc3)=NO2)n1 (stereo not given),x,x,0.67,-2.9,2.8,i,x
CCCc1nc2nc(C)c(NS(=O)(=O)c3ccc(C)c(C)c3)c(=O)n2[nH]1,3.8,x,x,x,-4.3,i,x
Nc1nc(NC2CCCCC2)nc(NCCO)c1[N+](=O)[O-],0.1,5.0,0.67,14,1.5,i,-3%
O=C1[C@H]2[C@@H](c3ccc(F)cc3)N3C(=O)N(c4cccc(Br)c4)C(=O)[C@@]3(Cc3ccccc3)[C@H]2C(=O)N1C1CCCCC1,-1.6,-5.3,x,-6.3,2.8,i,x
O=C(Oc1ccc(N(C(=O)c2ccncc2)S(=O)(=O)c2ccc(F)cc2)cc1)c1ccncc1,-1.4,1.0,0.71,-0.5,-3.7,x,x
CN(CC(=O)Nc1c(Cl)cccc1Cl)C(=O)CC1OC(=O)c2ccccc21 (stereo not given),-0.8,x,0.61,1.1,-1.4,i,-1%
O=[N+]([O-])c1cc2c(cc1/C=N/Nc1nc(Nc3ccccc3)nc(N3CCCCC3)n1)OCO2,x,-1.2,x,x,13,x,-4%
Cn1cnnc1SCC(=O)NC1CC1,-11,x,0.72,4.2,0.7,i,-9%

# High-throughput results deposited in PubChem BioAssay by several laboratories.

# Not all compounds are listed; the hit share may differ from the screen's.
